H5N1 antiviral: MDCK cell protection from H5N1 avian flu. cytopathic effect, luminescence, 72 h; active compounds read high; no value below 0 was filed and about half of the inactive calls have no number; reference of the scale not given here. inhibition, % at 50 µM. 96,000 tested, 0.07% active. AID 740; in the data active = inhibition above about 25%
Numbers without * were called inactive; i = inactive.

SMILES | H5N1 antiviral
O=C(c1cccs1)n1nc(-c2ccccc2)nc1NCc1ccc(F)cc1 | i
CCNC(=S)N1C2CCC1CC(NC(=O)NC1CCCCC1)C2 (stereo unspecified) | 0.7
O=C(O)C(Cc1ccccc1)NS(=O)(=O)c1ccc2c(c1)OCCO2 (stereo unspecified) | i
Clc1cnc(N/N=C/c2cccs2)c(Cl)c1 | 2.3
CC(=O)Nc1ccc(S(=O)(=O)NNC(=O)COc2cc(C)ccc2C(C)C)cc1 | 0.1
CCC(CC)NC(=O)CSc1nnc(-c2ccc(OC)cc2)n1C(C)C | 0.6
CCC(=O)N1c2ccc(S(=O)(=O)CCC(=O)NC3CCCC3)cc2CC1C (stereo unspecified) | 0.4
CCOc1ccc(NC(=O)Cn2nnc(C(=O)NCc3ccco3)c2N)cc1 | i
CCC(C)C(=O)Nc1nc(C)c(-c2csc(Nc3cc(OC)ccc3OC)n2)s1 (stereo unspecified) | i
c1ccc(Cn2c(CSc3nnnn3-c3ccccc3)nc3ccccc32)cc1 | i
CC(=O)c1sc(NC(=O)C(C)C)nc1C | 0.0
CCc1ccc(NC2CC(=O)N(c3ccc(OC)cc3OC)C2=O)cc1 (stereo unspecified) | i
Cc1ccc(NC2OC(CO)C(O)C(O)C2O)cc1 (stereo unspecified) | i
COc1ccc(OC)c(/C=c2\sc3nc(-c4cccs4)nn3c2=O)c1 | 0.2
CCc1ccccc1N1CC23C=CC(O2)C(C(=O)OCC(C)C)C3C1=O (stereo unspecified) | 1.7
O=C1CC(N2CCN(c3ccc(F)cc3)CC2)C(=O)N1Cc1cccs1 (stereo unspecified) | i
COc1ccc(CCNC(=O)CCN2C(=O)COc3ccc(C)cc32)cc1OC | i
Nc1nc(SCC(=O)NCCC(c2ccccc2)c2ccccc2)n[nH]1 | i
CN=C1S/C(=C\c2ccc(N3CCOCC3)c(F)c2)C(=O)N1C | 0.8
Cc1onc(-c2ccccc2)c1C(=O)Nc1nnc(N(C)Cc2ccccc2)s1 | i
Cc1nc2ccccc2c2oc(C(=O)NCCCN3CCC(C)CC3)cc12 | 0.5
Cc1ccc(Oc2ccc(-c3nc(N)nc(N)n3)cc2)cc1C | i
COc1cc(CCC(=O)N2CCN(c3ccc(N4CCOCC4)nn3)CC2)cc(OC)c1OC | 0.9
CC1CC/C(=C\c2ccc3c(c2)OCO3)C(=O)/C1=C/c1ccc2c(c1)OCO2 (stereo unspecified) | 0.0
COc1ccc(Cn2c(N)c(C(=O)NCc3ccco3)c3nc4ccccc4nc32)cc1 | 2.0
COC(=O)C1CCN(C(=O)c2sc3nc(-c4ccc(F)cc4)cn3c2C)CC1 | i
N#CC1(c2ccc(NC(=O)c3ccccc3)cc2)CCCC1 | i
CCOc1ccc(-n2cnnn2)cc1S(=O)(=O)NCCc1ccc(OC)c(OC)c1 | 7.0
O=C(CNS(=O)(=O)c1cccc2nonc12)NCc1ccc(F)cc1 | 0.1
c1ccc(CCn2nnnc2CN2CCC(n3nnc4ccccc43)CC2)cc1 | 0.2
CCn1c(COc2ccc(OC)cc2)nc2ccccc21 | 1.1
O=C(Nc1ccc(Cl)c(Cl)c1)OCc1cnc(Cl)s1 | i
COc1ccc(C(=O)Nc2ccc(NC(=O)c3ccco3)c(Cl)c2)cc1OC | i
O=C1N2CCSC2=NC1(Nc1nccs1)C(F)(F)F (stereo unspecified) | 0.1
COc1cc(NC(=O)c2ccco2)c(OC)cc1NC(=O)Nc1ccccc1Cl | i
O=C1C2C3C=CC(C3)C2C(=O)N1c1cccc(N2C(=O)C3C4C=CC(C4)C3C2=O)n1 (stereo unspecified) | 0.7
O=C(NCc1ccco1)c1cccc(Nc2nc3ccc(Br)cc3[nH]2)c1 | i
CC(C)(C)C(=O)NC(NC(=S)Nc1sc2c(c1C#N)CCCC2)C(Cl)(Cl)Cl (stereo unspecified) | 0.3
O=C1c2ccccc2C(=O)N1Cc1nc2ccccc2c(=O)n1-c1ccc(Br)cn1 | i
O=C(COc1ccccc1O)N1CCN(C(=O)c2ccco2)CC1 | 1.9
Cc1ccc(C(C(=O)NC(C)(C)C)N(C(=O)c2csnn2)c2ccccc2F)o1 (stereo unspecified) | 1.3
Cc1ccc(-n2c(SCC(=O)NCc3ccc4c(c3)OCO4)nnc2-c2cccnc2)c(C)c1 | 1.2
Cc1ccc(-c2nnc(CSc3nc4cc5c(cc4cc3C)OCO5)o2)cc1 | 0.0
O=S(=O)(c1ccc(S(=O)(=O)N2CCN3CCCC3C2)cc1)N1CCCC1 (stereo unspecified) | 1.2
Cc1cccc(C(=O)Nc2oc(-c3ccccc3)cc2C#N)c1 | i

Gathered by group: the entries above with bromine.
SMILES | H5N1 antiviral
O=C(NCc1ccco1)c1cccc(Nc2nc3ccc(Br)cc3[nH]2)c1 | i
O=C1c2ccccc2C(=O)N1Cc1nc2ccccc2c(=O)n1-c1ccc(Br)cn1 | i

Nothing new here: entries from further up.
SMILES | H5N1 antiviral
O=S(=O)(c1ccc(S(=O)(=O)N2CCN3CCCC3C2)cc1)N1CCCC1 (stereo unspecified) | 1.2
Cc1cccc(C(=O)Nc2oc(-c3ccccc3)cc2C#N)c1 | i

The list goes on:
SMILES | H5N1 antiviral
CC(C)(C)Nc1nc(OCC(F)(F)F)nc(OCC(F)(F)F)n1 | 0.9
COC(=O)C(C)Sc1nnc(-c2ccncc2)o1 (stereo unspecified) | i
Cn1c(=O)n(C)c2cc(NS(=O)(=O)c3ccc4c(c3)CCCC4)ccc21 | 0.8
COc1ccc(-n2cnnc2SCC(=O)c2ccc(S(=O)(=O)N3CCOCC3)cc2)cc1 | 1.4
O=C(O)Cc1sc(-c2ccccc2)nc1-c1ccccc1 | i
O=C1C=C(N2CCN(C3=CC(=O)CCC3)CC2)CCC1 | 1.1
COc1ccccc1N1CCN(Cc2nc3ccccc3c(=O)n2CC(C)=O)CC1 | 0.8
COc1ccccc1OC1=NS(=O)(=O)c2ccccc21 | 0.5
O=C(/C=C/c1ccccc1)N/C(=C/c1ccccc1)C(=O)NCCO | i
COc1ccc(CNC(=O)Cn2cnc3c(=O)n(C)c(=O)n(C)c32)cc1 | 2.1
O=C(NC(=S)Nc1cc(C(F)(F)F)ccc1Cl)c1ccccc1 | i
O=C(Oc1cccc(Oc2ccccc2)c1)N1CCOCC1 | 0.8
CC(=O)Nc1ccc(-n2c(C)c(C(C)=O)c(C(C)=O)c2C)cc1 | 0.9
CCCS(=O)(=O)c1c(S(=O)(=O)CCC)c2cnccn2c1C(=O)c1ccc(Cl)cc1 | i
O=C(CP(=O)(c1ccccc1)c1ccccc1)N1CCCCC1 | 0.7

Sorted by SMILES length (ascending): six of the compounds above
SMILES | H5N1 antiviral
O=C(Oc1cccc(Oc2ccccc2)c1)N1CCOCC1 | 0.8
O=C(O)Cc1sc(-c2ccccc2)nc1-c1ccccc1 | i
O=C1C=C(N2CCN(C3=CC(=O)CCC3)CC2)CCC1 | 1.1
O=C(CP(=O)(c1ccccc1)c1ccccc1)N1CCCCC1 | 0.7
O=C(NC(=S)Nc1cc(C(F)(F)F)ccc1Cl)c1ccccc1 | i
CC(C)(C)Nc1nc(OCC(F)(F)F)nc(OCC(F)(F)F)n1 | 0.9

Additional records
SMILES | H5N1 antiviral
CCC(C)NCCOc1ccc(Br)cc1 (stereo unspecified) | 0.5
CCSc1nc2cc(OC)c(OC)cc2c(=O)n1CCc1ccccc1 | 0.2
Cc1ccc(C(=O)N2CC(C)OC(C)C2)c(Cl)c1 (stereo unspecified) | 0.5
Cc1noc(C)c1CSc1nc2sc(C)c(C)c2c(=O)n1-c1ccccc1 | 6.1
C=CCc1ccc(OCCOc2cccc3ccc(C)nc23)c(OC)c1 | i
CCC/C(=N/NC(=O)c1csc(C)c1C)c1ccc(Cl)s1 | i
CCC(C(=O)N1CCC2(CC1)OCCO2)c1ccccc1 (stereo unspecified) | i
Cc1ccc(C(=O)c2coc3ccc(OCC(=O)O)cc23)cc1 | i
O=C(OCc1cnc(Cl)s1)c1cccc(Cl)c1 | 0.7
CCOC(=O)Cn1c(=O)oc2cc(S(=O)(=O)Nc3cc(OCC)ccc3OCC)ccc21 | 1.6
Cc1ccccc1N(C(=O)c1cccs1)c1nc2ccccc2s1 | 6.5
CCS(=O)(=O)n1nc(C(=O)N2CCOCC2)nc1N | 0.5
COc1cccc(NC(=S)N(CCc2nc3cc(C)c(C)cc3[nH]2)Cc2cccnc2)c1 | i
COc1cccc(C(=O)O/N=C(\N)c2ccc([N+](=O)[O-])cc2)c1 | i
O=c1[nH]cnc2c1nc(SCc1ccccc1)n2C1OC(CO)C(O)C1O (stereo unspecified) | 0.5
CCOc1ccc(CCNC(=O)CCN2C(=O)COc3ccccc32)cc1OCC | 1.2
COc1ccc(CN2CC34C=CC(O3)C(C(=O)O)C4C2=O)cc1 (stereo unspecified) | 1.3
O=C(c1ccco1)N1CCN(C(=O)N2c3ccccc3Sc3ccccc32)CC1 | 1.3
Cc1ccc(C)c(N2CCN(C(=O)c3ccccc3Br)CC2)c1 | i
COc1cc(NC(=O)c2cc3nc(-c4ccccc4)cc(-c4ccccc4)n3n2)cc(OC)c1OC | i
COc1ccc(C2=NOC(C(=O)N3CCCc4ccccc43)C2)cc1 (stereo unspecified) | 0.6
O=C(NCc1ccc(F)cc1)c1cc2n(n1)C(C(F)(F)F)CC(C1CC1)N2 (stereo unspecified) | i
O=C(CSC1c2ccccc2-c2ccccc21)N/N=C/c1ccccc1 | 0.5
O=C(COc1ccccc1C(=O)N/N=C\c1ccc(O)c(O)c1)N/N=C/c1ccc(O)c(O)c1 | 5.8
CC(C)CC(c1nnnn1Cc1ccco1)N1CCN(C2CCCC2)CC1 (stereo unspecified) | i
CCC(C)(C)n1nnnc1C(c1cccs1)N1CCN(c2nc3ccccc3s2)CC1 (stereo unspecified) | 1.3
COc1ccc(-c2ccc(C#N)c(SCC(=O)OCc3ccccc3)n2)cc1OC | i
COCCOC(=O)CC1=NC(=O)CS1 | 1.0
Cc1ccc(-c2c(C#N)c(N)nc3c2CCCCC3)o1 | 1.6
COc1cccc(C=Nc2ccc3c(c2)OCCO3)c1O | 0.8
O=C1NC(=O)C(CC(=O)N(Cc2ccco2)C2(C(=O)NC3CCCC3)CCCCC2)N1 (stereo unspecified) | i
COc1cc2c(C(=O)NCCCOC(C)C)cn(CC(C)C)c(=O)c2cc1OC | i
CC(C(=O)c1c[nH]c2ccccc12)N1CCSCC1 (stereo unspecified) | i
O=C(NC(CSCc1ccccc1)C(=O)N/N=C/c1ccc(O)cc1O)c1ccc([N+](=O)[O-])cc1 (stereo unspecified) | i
CSc1nc2[nH]c3c(c2c2nncn12)CC(C)(C)OC3 | 10.8
O=C(NCc1ccccc1)c1cc(-n2cnnc2)ccc1Cl | i
CCn1c(Cc2c(C)[nH]c3ccccc23)nnc1SCC(N)=O | i
C/C(Cl)=C/Cn1c(=O)c2c(nc(Br)n2Cc2ccccc2)n(C)c1=O | i
CC(=O)Cc1nsc(NC(=O)c2ccc(-c3cc(C(F)(F)F)ccc3Cl)o2)n1 | i
COc1cc(NC2c3ccccc3C(=O)N2Cc2ccc3c(c2)OCO3)cc(OC)c1OC (stereo unspecified) | i
COC(=O)c1[nH]c2ccccc2c1NC(=O)CN1CCC(C(N)=O)(N2CCCCC2)CC1 | i
CCOC(=O)c1sc(NC(=O)c2cc3n(n2)C(C(F)(F)F)CC(c2cccs2)N3)c(C(=O)OCC)c1C (stereo unspecified) | i
CC(=O)c1cc(C#N)c(Oc2cccc(C(F)(F)F)c2)nc1C | i
COc1cccc(C2CC(c3ccccc3OC)n3nc(N)nc3N2)c1 (stereo unspecified) | i
COC(=O)C(NS(C)(=O)=O)(c1c(C)[nH]c2ccccc12)C(F)(F)F (stereo unspecified) | 0.4
O=C(C(Cc1ccccc1)n1cccc1)N1CCN(C2CCCCC2)CC1 (stereo unspecified) | i
O=C(Nc1ccccc1)c1nnsc1S(=O)c1ccc(Cl)cc1 (stereo unspecified) | 1.1
COc1ccccc1CNC(=O)C1CCN(C(=O)N(C)C)CC1 | 1.6
COc1ccccc1-c1cc(C(F)(F)F)nc(NCc2ccco2)n1 | i
Cn1nc(C(F)(F)F)c2cc(NC(=O)OCc3ccc(F)cc3)sc21 | i
COc1ccccc1OCCNc1cc(N2CCOCC2)ccc1[N+](=O)[O-] | 1.6
CCCCNC(=O)Nc1cc(C(F)(F)F)c[nH]c1=O | i
c1ccc(Nc2ccccn2)cc1 | 3.5
COc1cccc(C(CC(=O)NCc2ccco2)NS(=O)(=O)c2ccc(C)cc2)c1OC (stereo unspecified) | 0.1
CC(=O)NC(c1ccccc1)c1cccnc1 (stereo unspecified) | 0.2
CCOC(=O)Nc1ccc2c(c1)N(C(=O)CN1CCN3CCCC3C1)c1ccccc1CC2 (stereo unspecified) | i
Cc1ccc(C)c2nc(SCC(=O)NCc3cccs3)c(C#N)cc12 | 0.1
COc1ccc(CN(Cc2nc3ccccc3c(=O)[nH]2)C(=O)C(C)(C)C)cc1 | i
Cc1ccccc1NC(=O)CSc1nc(N)c(C#N)cc1C#N | 0.0
CCCCN(Cc1ccccc1)C(=O)C1CCN(S(=O)(=O)c2c(C)noc2C)CC1 | 0.5
CC(C)CCNC(=O)C(c1ccco1)N(Cc1ccc(F)cc1)C(=O)c1snc(C(N)=O)c1N (stereo unspecified) | 0.9
CC1(C)Cc2c(sc3ncn4nc(CCC(=O)O)c(=O)nc4c23)CO1 | 1.3
COC(=O)c1c(N)c(C#N)c2n1CCCCC2 | 0.1

These rows are one share of the data (hit frequency here may not be typical).
